Bioassay records: PubChem, several laboratories
PABP FP inh: PABP poly(A) RNA binding inhibitors, primary screen, biochemical, fluorescence polarization, uHTS; actives 1% (n = 290,000); inhibition, % at 35 µM; Polyadenylate-binding protein 1 (Homo sapiens), P11940; AID 2014, 2009;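 active means 50% or more with normal probe brightness, or confirmed in later tests; inconclusive means above 50% with abnormal brightness, or retests that disagree; inactive means below 50% or failed in later tests; about a fifth of its hits are not listed in these tables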;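 further: calls also rest on retests at 20 µM and on dose response follow-up; controls were probe without protein and protein plus probe with vehicle; some compounds called inactive have numbers as strong as hits; many hits fall short of the cut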
Target sequence (P11940 whole entry, looked up): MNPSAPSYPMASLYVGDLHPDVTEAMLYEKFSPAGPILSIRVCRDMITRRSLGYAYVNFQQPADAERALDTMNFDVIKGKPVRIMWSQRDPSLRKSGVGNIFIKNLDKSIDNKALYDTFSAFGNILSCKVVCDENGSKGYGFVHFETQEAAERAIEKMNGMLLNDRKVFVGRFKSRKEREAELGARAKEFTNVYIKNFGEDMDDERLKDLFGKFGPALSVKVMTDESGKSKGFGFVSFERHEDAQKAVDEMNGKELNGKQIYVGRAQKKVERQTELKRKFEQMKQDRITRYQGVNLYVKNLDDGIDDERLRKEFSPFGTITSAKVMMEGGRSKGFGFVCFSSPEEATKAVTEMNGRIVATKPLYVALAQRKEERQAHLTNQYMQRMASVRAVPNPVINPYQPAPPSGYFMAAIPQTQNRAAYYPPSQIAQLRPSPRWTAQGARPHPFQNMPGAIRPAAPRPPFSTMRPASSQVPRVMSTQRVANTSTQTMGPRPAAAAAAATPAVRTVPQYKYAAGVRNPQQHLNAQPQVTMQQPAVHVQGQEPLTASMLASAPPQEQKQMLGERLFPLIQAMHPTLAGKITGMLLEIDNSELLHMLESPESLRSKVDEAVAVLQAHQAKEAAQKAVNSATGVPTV
HIV Env fusion: inhibitors of HIV-1 Env-driven cell-cell fusion, primary screen, HeLa-JRFL effector, CEM21 target cells, luciferase | inhibition, % at 12.3 µM | actives 1.1% (n = 360,000);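 active means mean replicate inhibition score of at least 50 and every replicate individually at or above 50; inconclusive means only one of the two criteria met; inactive means mean below 50 and not all replicates reaching 50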;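 further: 0% = plate neutral controls and 100% = maraviroc near 300 nM; one replicate is shown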
MT1-MMP act inh: blockers of MT1-MMP proenzyme processing, primary screen, HT1080 RFP-PRO-GFP cells, GFP/RFP fluorescence; Matrix metalloproteinase-14 (Homo sapiens), P50281; GFP/RFP ratio fluorescence, overnight; percent of plate control window, DMSO zero; GFP/RFP ratio change, % at 20 µM; actives 0.061% (n = 360,000);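 active means GFP/RFP ratio change of at least 30% with cell ATP level not reduced by more than half and red fluorescence within 50% of control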; further: strong numbers were not always called active
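Test system: HT1080 RFP-PRO-GFP cells; Benchmarks: DMSO and RFP-L50D-GFP cell wells; Timing: cells overnight before dosing, compound overnight, 37 °C, 5% CO2; Compound: one 20 µM compound dose with 1% DMSO; Read-out: GFP/RFP fluorescence ratio.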
eIF4H inh: human eIF4H binding inhibitors, primary screen, translation initiation inhibitor project, biochemical, uHTS, fluorescence polarization | inhibition, % at 35 µM | Eukaryotic translation initiation factor 4H (Homo sapiens), Q15056 | eIF4H fluorescence polarization binding assay | actives 0.94% (n = 290,000);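 active means 50% or more with normal probe brightness, or confirmed in later tests; inconclusive means above 50% with abnormal brightness, or retests that disagree; inactive means below 50% or failed in later tests; about a fifth of its hits are not listed in these tables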;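 further: calls also rest on retests at 20 µM and on dose response follow-up; 0% = protein and probe with vehicle and 100% = probe without protein; strong numbers were not always called active; many hits fall short of the cut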
UUG fidelity: modulators of yeast start codon fidelity, primary screen, whole organism, S. cerevisiae, single point, plate reader; AID 602363, 2012; actives 0.13% (n = 350,000); S. cerevisiae UUG-firefly luciferase reporter, luminescence/redox ratio; activity score, % at 18.7 µM;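 active means replicate mean at a twofold rise or more, about +100% in these data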;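 further: firefly luciferase made from a UUG start codon reports start codon fidelity; reporter light over untreated wells divided by growth signal over untreated wells; some hits fall short of that in this replicate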
Rce1 inhib: yeast Rce1p protease inhibitors, primary screen, biochemical, fluorescence, cell-free homogeneous; yeast membranes, quenched prenylated peptide cleavage fluorescence; calls only; actives 0.27% (n = 290,000); AID 2563, 2010;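 active means fall in fluorescence gain of 50% or more versus controls, with final raw signal at or below 3038400; inconclusive means same 50% fall but final raw signal above 3038400; inactive means fall in fluorescence gain under 50%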;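 further: plate controls were neutral control wells for no effect and wells lacking membranes for full effect; tested at 10 µM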
Target sequence (Q03530 whole entry, looked up): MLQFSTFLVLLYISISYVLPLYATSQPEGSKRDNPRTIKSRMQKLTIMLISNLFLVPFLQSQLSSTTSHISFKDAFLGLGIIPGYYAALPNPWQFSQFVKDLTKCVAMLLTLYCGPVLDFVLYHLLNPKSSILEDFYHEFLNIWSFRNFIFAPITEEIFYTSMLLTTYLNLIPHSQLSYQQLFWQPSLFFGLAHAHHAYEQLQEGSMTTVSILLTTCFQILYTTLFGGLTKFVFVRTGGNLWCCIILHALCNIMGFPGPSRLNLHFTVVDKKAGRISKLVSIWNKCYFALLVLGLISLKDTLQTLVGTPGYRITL
CSC inhib: cancer stem cell viability inhibitors, primary screen, luminescence; cancer stem cell-like cells viability; inhibition, % at 7.5 µM; actives 1.1% (n = 300,000); AID 2717, 2010;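 active means mean at 75% or more and at least half the replicates too; inconclusive means mean and replicates disagree; tested in HMLE shEcad cells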;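 further: 0% = median of negative and 100% = median of positive control wells; the first replicate is given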
eIF4H inh retest: further read-out of eIF4H inh, marked with its call; inhibition, %; compound at 20 µM; confirmation average;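 mean of two retest wells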
PABP FP inh retest: second read-out of PABP FP inh, no call of its own (marks repeat the call); inhibition, %; compound at 20 µM; confirmation repeats;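 mean of two retest wells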
MT1-MMP act inh RFP: also measured in MT1-MMP act inh; calls as there; RFP signal change, %; measured here: RFP expression control read;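 0 = vehicle wells; hits needed this value within 50% of zero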
Starred values were filed as active, the others as inactive; i = inactive; ? = inconclusive; . = no result given; & = joins results of further samples; [ ] = remark or other dose. Only part of the results is shown; rates above refer to the full screens.

SMILES	PABP FP inh	HIV Env fusion	MT1-MMP act inh	MT1-MMP act inh RFP	eIF4H inh	UUG fidelity	Rce1 inhib	CSC inhib	others
CCC(=O)Nc1ccc(C(=O)Nc2c[nH]c(=O)[nH]c2=O)cc1	11	10	0	7	-2	-16	i	.
O=C(CCNC(=O)c1ccco1)Nc1ccccc1N1CCOCC1	-2	8	0	3	-2	.	i	-9
CCOC(=O)[C@@H](C)NS(=O)(=O)N(Cc1ccccc1)[C@H](C(=O)OC)C(C)C	.	47	-2	1	.	22	.	-15
Cc1ccc(N2CCN(c3ccc([N+](=O)[O-])cn3)CC2)c(C)c1	-4	23	6	-1	-15	-19	i	4
COc1ccc(N2CCN(S(=O)(=O)c3c[nH]c(=O)[nH]c3=O)CC2)cc1	.	.	5	3	.	.	i	-6
O=C(COC(=O)c1ccc(F)cc1)Nc1ccc(Cl)cn1	-11	-9	0	1	-4	.	i	-3
CCOc1ccc(-c2c(C(=O)N/N=C/c3sccc3C)nnn2-c2nonc2N)cc1	-1	6	4	-5	2	-13	i	-9
CCN(CC)S(=O)(=O)c1ccc(NC(=O)c2c(-c3ccccc3)noc2C)cc1	-2	-4	-6	-6	0	-19	i	1
COc1ccc(CCNC(=O)C2CC=CCC2C(=O)O)cc1 (stereo unspecified)	7	2	1	8	-3	-8	i	-17
CCCOc1ccc(Cn2c(C)nc([N+](=O)[O-])c2SCC(O)COC)cc1[N+](=O)[O-] (stereo unspecified)	-6	?	2	-4	-10	-11	i	1
COc1ccc(C)cc1NC(=O)Nc1ccccc1SC	4	-4	-3	-1	-7	.	i	0
Cc1nc(SCC(=O)NC2CCCC2)c2c(C)c(C)sc2n1	2	-3	0	-5	3	-1	.	-12
Cc1ccc(N(C)C(=O)c2cc(S(=O)(=O)N3CCc4ccccc43)cn2C)cc1	-5	10	-4	-8	-5	-6	i	3
COc1ccc2nc(CCN(C)C(=O)C3CCC(=O)N(Cc4cccc(F)c4)C3)[nH]c2c1 (stereo unspecified)	2	7	0	5	6	9	i	-2
Cc1ccc(SCC(=O)OCC(=O)NC(C)c2ccc(Br)cc2)cc1 (stereo unspecified)	-8	-12	0	5	-6	-9	.	-3
COC(C(=O)NNC(=O)CCc1ccccc1)c1ccccc1 (stereo unspecified)	-8	-1	-2	1	3	.	i	-12
Cc1ccccc1S(=O)(=O)Cc1ccc(C(=O)NCCCN(C)Cc2ccccc2)o1	3	0	0	6	-10	0	i	-4
Cc1ccccc1NC(=O)/C(C#N)=C/c1ccsc1	10	-336	-11	2	-12	0	i	4
Nc1c(C(=O)NCCc2ccccc2)nnn1Cc1ccc(Cl)cc1	7	-12	5	-1	-5	-16	i	0
CN(C(=O)c1cccc(NC(=O)Cc2ccc(NC(=O)C3CCCN(C(=O)C4CCCC4)C3)cc2)c1)C1CCCCC1 (stereo unspecified)	.	5	-3	-16	.	8	.	.
O=C(O)[C@H]1CCCC[C@H]1C(=O)Nc1ccc(S(=O)(=O)N2CCCCC2)cc1	-11	2	2	2	6	7	i	.
O=C(COc1ccccc1C(=O)NCC1CCCO1)Nc1ccc(Br)cc1 (stereo unspecified)	-5	13	3	-1	-2	-7	i	-10
COc1ccc(NC2CCCN(C(=O)CCN3CCCC3=O)C2)cc1OC (stereo unspecified)	13	-17	2	4	2	-8	i	-1
COc1ccc(-c2nnn(CC(=O)N(CC(=O)NC3CCCC3)c3cccc(C)c3)n2)cc1OC	-12	-24	5	0	0	7	i	-9
O=C(NCCCN1CCN(CCCNC(=O)c2ccccc2F)CC1)c1ccccc1F	10	-10	2	3	10	-12	i	.
SMILES	PABP FP inh	HIV Env fusion	MT1-MMP act inh	MT1-MMP act inh RFP	eIF4H inh	UUG fidelity	Rce1 inhib	CSC inhib	others
COc1ccc(NC(=O)C2CC(=O)NC3=C2C(=O)CC(C)(C)C3)cc1 (stereo unspecified)	-4	.	5	0	3	-14	i	-6
Cc1cc(Br)c(OCC(=O)NN)c2c1CCC2	2	-13	2	2	-4	-23	.	-6
Cc1ccc2c(c1)COc1c3ccc(C(=O)NCC4CC4)cc3nn1-2	4	-104	7	-8	-1	-5	i	25
CCNc1ccccc(C(=O)/C=C/c2ccc3c(c2)OCO3)c1=O	27	.	-7	5	25	-6	i	18
COC(=O)c1ccc(C2OCC(C)(C)CO2)cc1	-3	-22	5	6	-2	-3	i	14
COc1ccc(CN2CCCC(CO)(Cc3cccc(Cl)c3)C2)cc1OC (stereo unspecified)	0	-11	2	-1	3	-13	i	15
CCOC(=O)[C@H]1[C@H]2COc3ccc(Br)cc3[C@@H]2N2C(=O)CN(Cc3ccccc3)C(=O)[C@@]12C	.	6	1	-2	.	-12	.	-8
Cc1ccc(OCC(=O)Nc2ccc(NC(=O)c3ccccc3)cc2)cc1C	-3	7	4	4	-1	-28	i	-6
Nc1nc(COC(=O)CCC(=O)c2ccc(Cl)cc2)nc(Nc2ccccc2)n1	.	9	3	3	.	-21	.	.
Cn1c(SCC(=O)NC(=O)CN2CCCC2=O)nnc1-c1ccc(F)cc1	2	7	2	3	-4	-8	i	-1
COc1ccc(CCNC(=O)c2ccccc2N(C)S(=O)(=O)c2ccccc2)cc1	-1	10	-3	-1	-11	.	i	-3
C[C@H](CO)N1C[C@H](C)[C@@H](CN(C)C(=O)Nc2ccccc2)Oc2c(NC(=O)Nc3ccccc3)cccc2C1=O	.	17[16.7 µM]	1	-1	.	-8&13	.	-7
COc1ccc(CNC(=O)COC(=O)[C@H](Cc2ccccc2)NC(=O)c2cccs2)cc1	.	0	1	6	.	12	.	-12
Cc1sc(NC(=O)c2ccc(Cl)s2)c(C(N)=O)c1C	12	-277	1	1	2	-20	i	-10
CCC[C@@H]1CCCO[C@@](C(=O)NCCN2CCOCC2)(C(F)(F)F)C1	.	-12	0	2	.	9	i	-4
COc1ccc(NC(=O)N2c3ccc(OC)cc3C(C)=CC2(C)C)cc1	12	-17	-3	5	116	-11	i	2	eIF4H inh retest=-4;PABP FP inh retest=32
CC1(C)CC(=O)C(N=Nc2ccc(Cl)cc2)=C(O)C1	-18	15	-4	-5	-10	.	i	-8
CCc1sc(N)nc1-c1ccccc1	25	.	2	6	1	-20	i	9
Cc1ccc2oc(=O)c3cc(C(=O)NCCN4CCc5ccccc5C4)sc3c2c1	7	-5	6	6	4	-8	i	-5
COc1cc(OC)c(C=O)c(OC(=O)N2CCOCC2)c1	5	4	-5	1	2	-7	i	128*
O=C(Nc1nccs1)c1cccc(S(=O)(=O)N2CCOCC2)c1	.	.	3	5	.	11	i	3
Cc1nc(N2CCC(C)CC2)c2c(C)c(C(=O)Nc3ccccc3C(F)(F)F)sc2n1	-3	-1	-3	-5	-5	.	i	44
CC(NC(=O)c1ccc(C(=O)c2ccccc2)cc1)c1ccc(S(N)(=O)=O)cc1 (stereo unspecified)	.	7	-3	2	.	5	.	.
Cc1ccc(C)c(N2CCN(c3ccncc3N)CC2)c1	1	20	1	-5	2	-5	i	61
CC1=C(C(=O)OC2CCCCC2)C(c2cccs2)n2c(nc3ccccc32)N1 (stereo unspecified)	-4	4	-8	-8	-2	.	i	-4

Pulled by compound from above (2):
SMILES	PABP FP inh	HIV Env fusion	MT1-MMP act inh	MT1-MMP act inh RFP	eIF4H inh	UUG fidelity	Rce1 inhib	CSC inhib	others
Cc1sc(NC(=O)c2ccc(Cl)s2)c(C(N)=O)c1C	12	-277	1	1	2	-20	i	-10
COc1ccc(CNC(=O)COC(=O)[C@H](Cc2ccccc2)NC(=O)c2cccs2)cc1	.	0	1	6	.	12	.	-12

New compounds follow
SMILES	PABP FP inh	HIV Env fusion	MT1-MMP act inh	MT1-MMP act inh RFP	eIF4H inh	UUG fidelity	Rce1 inhib	CSC inhib	others
CCN(CCn1cccn1)Cc1nc(-c2ccccc2)no1	-5	-4	-1	3	24	.	i	-2
Cn1c(=O)c(C(=O)COC(=O)c2cc(-c3ccccc3)nc3ccccc23)c(N)n(Cc2ccccc2)c1=O	-3	.	.	.	6	.	i	-6
CCOc1ccc(C(=O)N(C)C2CCS(=O)(=O)C2)cc1 (stereo unspecified)	-3	.	-4	1	-9	-25	i	-14
O=C(CC1SCCNC1=O)Nc1ccc(Cl)cc1 (stereo unspecified)	10	-8	1	2	-5	.	i	-13
O=C1c2ccccc2C(=O)C1C1=Nc2ccccc2NC(c2ccccc2)C1 (stereo unspecified)	6	2	.	.	-8	.	i	-5
C[C@H]1CN([C@@H](C)CO)S(=O)(=O)c2ccc(Br)cc2O[C@H]1CN(C)C(=O)CCN1CCCCC1	.	12	0	6	.	0&-9	.	.
COc1ccc(Cc2nnc(SCC(=O)NCCc3ccccc3)o2)cc1	2	-15	-1	2	6	0	i	-1
CC1CN(S(=O)(=O)c2cccc(C(=O)Nc3ccc(S(=O)(=O)NC4=NCCCCC4)cc3)c2)CC(C)O1 (stereo unspecified)	.	-5	.	.	.	8	i	13
Cc1nn(CC(=O)N2CCOCC2)c(=O)c2ccccc12	-2	5	-8	-5	-8	-13	i	-10
O=C(c1ccc(-n2cccn2)cc1)N1CCc2c([nH]c3ccccc23)C1c1ccccn1 (stereo unspecified)	2	8	-4	0	2	-14	i	9
CC1CC(=O)N(CCc2ccccc2)C(=O)C1	.	-11	0	1	.	-19	.	.
O=[N+]([O-])c1ccc(Cl)cc1Sc1ccccn1	21	7	0	3	-10	-22	i	-16
CCN(CC)c1nc(=S)nc(NC(C)(C)C)[nH]1	7	.	9	2	-7	.	i	-3
c1ccc(COc2cccc(CNCc3cccs3)c2)cc1	0	-1	-1	0	11	.	i	26
CC(=O)C[C@H](O)CC(=O)[C@@H]1OC(=O)[C@H](C)C/C=C\Cc2ccccc21	.	0	-1	1	.	-15	.	-8
COc1ccccc1Nc1nc(C)cc(C)n1	-12	-82	4	-1	-7	-16	i	1
CCOc1ccc2nc(N3CCC(C(=O)N4CCN(C(=O)c5ccco5)CC4)CC3)sc2c1	-14	.	1	-11	?	-1	i	-16
CNS(=O)(=O)c1cccc(C(=O)OCC(=O)Nc2ccc(-c3nc4ccc(C)cc4s3)cc2)c1	-9	.	9	2	-14	.	i	-9
O=C(NC1CCCC1)C(c1ccc(F)cc1)N(C(=O)c1csnn1)c1ccccc1F (stereo unspecified)	-10	8	-4	1	-13	-16	i	-24
Cc1nn(C)c(C)c1S(=O)(=O)N(CC(=O)NCc1cccs1)c1ccc(C(C)C)cc1	-8	31	1	3	-3	-8	.	4
COC(=O)c1c(C(=O)OC)c(C)n(Cc2ccco2)c1C	4	-37	-1	3	-15	-17	i	.
Cc1cc(C)cc(OCC(=O)OCC(=O)N2CC(=O)Nc3ccccc32)c1	-4	-31	-3	-1	-11	.	i	4
Cc1ccc(N2Cc3ccccc3C2=O)cc1	-6	-20	0	-1	0	-41	i	16
COc1ccc(-n2c(C)cc(-c3csc(N)n3)c2C)cc1	-6	-3	4	7	65	2	i	12	eIF4H inh retest=-3;PABP FP inh retest=-4
Cc1nc(SCC(=O)N(C)C2CCCCC2)[nH]c(=O)c1Cc1ccccc1	-8	.	10	0	-13	25	i	-12
